RanGTP-Impb inh: inhibitors of RanGTP-importin-beta interaction, primary screen, biochemical, FRET, CFP-Ran, YFP-importin-beta, homogeneous. Ran GTPase (GTP-bound) - importin-beta complex. cell-free CFP-Ran/YFP-importin-beta FRET ratio. inhibition, % (test concentration not listed). 300,000 tested, 1.1% active. AID 2216, 2009;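 active means most replicates above 15%; inconclusive means exactly half above 15%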;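 further: 0% = DMSO wells and 100% = Ran loaded with GDP instead of GTP; wells of about 40 µL received 100 nL stock; the first replicate is given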
Vif A3G: inhibitors of Vif binding to APOBEC3G peptide, primary screen, biochemical, TR-FRET, GST-Vif 1-94, biotin-A3G peptide, dose response retest (AID 1117319). Virion infectivity factor (Human immunodeficiency virus type 1 group M subtype B (isolate …. TR-FRET GST-Vif / biotin-A3G peptide binding; higher % means a stronger effect; test concentration not given here; strong numbers were not always called active. one-dose inhibition, %; IC50 in µM for titrated hits. 260,000 tested, 0.57% active;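 active means above the screen mean plus three standard deviations and confirmed in dose response; inconclusive means results disagree or hit not tested in dose response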;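 further: Vif residues 1-94 fused to GST binding biotinylated APOBEC3G peptide 110-148; 0% = full assay without inhibitor and 100% = GST in place of GST-Vif; retest series ran down from 100 µM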
T cruzi repl: inhibitors of intracellular T. cruzi growth, primary screen, luminescence, NIH3T3 host cells | T. cruzi beta-gal in NIH3T3, 90 h | 300,000 tested, 1.4% active | AID 1885, 2009 | inhibition, % (test concentration not listed);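 active means mean inhibition across valid replicates above about 55%, limit read from the data; inconclusive means mean below that limit but half or more replicates reach it; inactive means mean below it, under half of replicates reach it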;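 further: signal also drops with host cell toxicity which is not excluded here; 0% = plate median of DMSO wells and 100% = zero luminescence signal; higher percent means less beta-gal luminescence so fewer parasites; stock transfer was 50 nL into about 50 µL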
MLL AF4-AF9 inh: inhibitors of AF4 peptide binding to AF9, primary screen, biochemical, AlphaScreen, biotin-AF4 peptide, FLAG-AF9, single point. Protein AF-9 (Homo sapiens), P42568. inhibition, % at 10 µM. 350,000 tested, 0.47% active. AID 651704, 2012;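 active means every replicate reaching a set inhibition limit, whatever the replicate mean, cut at about 25% in these data; inconclusive means mean inhibition reaches that limit but some replicates miss it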;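 further: 0% = plate neutral control median and 100% = total signal loss; the record names both 10 and 1 µM as test concentration; the first replicate is given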
Calb FLC: C. albicans growth inhibition with fluconazole, primary screen, CaCi-2 strain, Alamar Blue fluorescence | C. albicans CaCi-2 (fluconazole-resistant clinical isolate) + fluconazole, 48 h | growth inhibition, % (concentration not given with the values) | 300,000 tested, 0.57% active | AID 1979, 2009;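 active means most replicates above 75%; inconclusive means exactly half above 75%; inactive means most below 75%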;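 further: all wells also contain fluconazole at 8 µg/ml as a sub-toxic cotreatment; 0% = median of DMSO wells and 100% = median of geldanamycin control wells; wells of about 8 µL received 7.5 nL stock; the first replicate is given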
Beta cell apopt: inhibitors of cytokine-induced beta cell apoptosis, primary screen, luminescence; INS-1E cytokine-induced death, ATP luminescence, 48 h; percent of positive-control rescue, neutral wells zero; protection from apoptosis, % (test concentration not listed); 300,000 tested, 0.8% active;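 active means all replicates at 75% or more, or half of them and the mean; inconclusive means half reach 75% but not the mean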;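 further: 0% = cytokine-treated negative control wells and 100% = positive control rescue; higher means more ATP so stronger rescue from cytokine killing; wells of about 40 µL received 100 nL stock; the first replicate is given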
Bfl-1 A1 inh: caspase 3/7 activation in MEF A1-2A-BIM cells, primary screen, A1 inhibitor project, cell-based, luminescence, HTS. Caspase-Glo 3/7 luminescence, 3 h; percent of clofoctol response, vehicle zero. caspase activation, % (test concentration not listed). 330,000 tested, 0.066% active. AID 2462, 2010;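 active means over half of replicate activation scores above 10%, or exactly half above 10 with the replicate mean above 10; inconclusive means replicate mean below 10 yet half the replicates above 10; inactive means over half of replicates below 10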;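 further: wells of about 30 µL received 50 nL stock; many hits fall short of the cut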
LANA-H2B inh: blockers of LANA interaction with H2A/H2B – biochemical, FP readout, HTS, primary screen; cell-free LANA-H2A/H2B peptide, fluorescence polarization; Protein LANA1 (Human herpesvirus 8 type P (isolate GK18)), Q9QR71; 320,000 tested, 0.6% active; inhibition, % (no concentration beside the values); AID 2629, 2010; in the data active means inhibition mostly above about 10%, no sharp cut-off; inactive means mostly below about 6.7%;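 further: stock transfer was 7.5 nL into about 10 µL; 0% = median of vehicle wells and 100% = median of positive control wells; one replicate is shown; the record names a cut of 25% in any replicate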
Target sequence (Q9QR71 whole entry, looked up): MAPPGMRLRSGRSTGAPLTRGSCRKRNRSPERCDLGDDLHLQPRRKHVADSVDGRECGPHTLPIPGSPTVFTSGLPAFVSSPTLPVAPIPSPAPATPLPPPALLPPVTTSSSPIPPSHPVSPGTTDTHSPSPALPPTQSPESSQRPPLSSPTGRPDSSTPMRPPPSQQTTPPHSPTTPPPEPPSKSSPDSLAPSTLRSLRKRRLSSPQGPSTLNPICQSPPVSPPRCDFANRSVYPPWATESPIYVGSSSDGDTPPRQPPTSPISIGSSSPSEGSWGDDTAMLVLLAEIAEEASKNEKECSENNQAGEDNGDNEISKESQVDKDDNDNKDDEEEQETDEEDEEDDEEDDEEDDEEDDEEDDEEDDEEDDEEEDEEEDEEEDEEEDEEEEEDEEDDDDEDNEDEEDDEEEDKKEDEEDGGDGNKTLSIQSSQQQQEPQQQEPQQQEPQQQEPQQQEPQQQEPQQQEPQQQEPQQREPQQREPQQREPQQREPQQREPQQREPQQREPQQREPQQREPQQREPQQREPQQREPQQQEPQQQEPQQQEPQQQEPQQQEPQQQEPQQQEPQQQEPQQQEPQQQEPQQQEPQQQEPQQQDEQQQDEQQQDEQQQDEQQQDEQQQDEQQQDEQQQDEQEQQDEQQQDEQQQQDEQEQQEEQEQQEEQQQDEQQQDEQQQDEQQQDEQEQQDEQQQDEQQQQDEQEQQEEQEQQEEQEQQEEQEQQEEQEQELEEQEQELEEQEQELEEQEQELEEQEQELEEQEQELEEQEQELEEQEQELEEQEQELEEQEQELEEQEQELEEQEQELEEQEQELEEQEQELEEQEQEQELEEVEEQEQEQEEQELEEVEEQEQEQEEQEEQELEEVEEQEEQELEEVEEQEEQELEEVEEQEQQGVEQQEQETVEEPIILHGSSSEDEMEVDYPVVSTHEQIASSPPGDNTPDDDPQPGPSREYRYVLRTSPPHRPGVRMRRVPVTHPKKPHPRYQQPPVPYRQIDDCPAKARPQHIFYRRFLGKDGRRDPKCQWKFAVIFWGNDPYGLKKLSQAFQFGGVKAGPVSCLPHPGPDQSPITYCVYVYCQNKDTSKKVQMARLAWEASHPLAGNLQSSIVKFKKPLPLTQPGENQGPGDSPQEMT
Starred values were filed as active, the others as inactive; ? = inconclusive; nt = no result given.

SMILES | RanGTP-Impb inh | Vif A3G | T cruzi repl | MLL AF4-AF9 inh | Calb FLC | Beta cell apopt | Bfl-1 A1 inh | LANA-H2B inh
COC(=O)c1ccccc1NC1CC(=O)N(c2c(C)cccc2C)C1=O (stereo not given) | -1.9 | 1% | -9 | nt | -3 | -4 | -0.2 | 96*
O=C(/C=C/c1ccc(OCc2cccc(Cl)c2)cc1)N1CCOCC1 | 0.6 | nt | 15 | 5.9 | 33 | 6 | -1.1 | -1.7
CCn1ncc(C2=NOC(C(=O)Nc3cccnc3)C2)c1C (stereo not given) | -3.5 | 15% | -8 | nt | -7 | -1 | 0.0 | 5.5
O=C(COC(=O)c1cccs1)NC1CCCCC1 | 1.1 | 2% | -1 | nt | -13 | -4 | 0.9 | 3.0
COc1ccc2nc(NC(=O)C3CCCN(S(=O)(=O)c4cccc5nsnc45)C3)sc2c1 (stereo not given) | 0.1 | -72% | 20 | nt | -6 | 13 | -0.6 | -1.5
COc1ccc([N+](=O)[O-])cc1N(CC(=O)NC1CCCCC1)S(C)(=O)=O | -3.9 | 13% | 9 | 0.8 | -11 | -1 | -0.2 | -1.3
Cc1ccc(-n2c(C)cc3c2CC(C)(C)CC3=O)cc1C | -0.3 | 25% | -9 | nt | 1 | -6 | 0.8 | -5.1
O=C(COC(=O)c1ccc(O)cc1O)N=c1sccn1Cc1ccccc1Cl | 2.7 | 1% | 15 | 0.8 | 1 | 1 | -0.2 | 0.5
Cc1cc(NC(=O)C2CC2)ncc1NC(=O)c1ccccn1 | -0.5 | -6% | -4 | -6.8 | 15 | -1 | -1.6 | 2.1
COc1ccc(CCN=CC2=C(O)CCCC2=O)cc1OC | 3.7 | 2% | -15 | nt | 1 | -4 | -0.1 | 0.1
COc1ccc(N2CCN(c3ccc(N4C(=O)CC(C)C4=O)cc3[N+](=O)[O-])CC2)cc1 (stereo not given) | 4.6 | -4% | 10 | 8.9 | 1 | -5 | 0.6 | 5.4
CCc1cc2c(SCC(=O)c3ccc(Cl)s3)ncnc2s1 | 1.2 | -7% | 20 | nt | -3 | 0 | 0.5 | -1.6
COC(CNC(=O)c1ccc(CS(=O)(=O)c2ccccc2)o1)OC | -1.4 | 10% | -4 | -4.4 | -4 | nt | 0.3 | 0.3
CCCc1nn2c(=O)cc(CSCC(=O)Nc3cccc(C)c3)nc2s1 | 0.2 | 5% | -12 | -3.4 | 6 | 0 | 1.4 | -0.8
CCSc1nnc(NC(=O)[C@@H](NC(=O)c2ccccc2)C(C)C)s1 | 0.4 | nt | 12 | -0.1 | -6 | 0 | 0.0 | 2.4
C/C(=N\NC(=O)c1cc(C(C)(C)C)[nH]n1)C12CC3CC(CC(C3)C1)C2 | 3.3 | nt | 7 | 2.2 | 36 | nt | 0.2 | -2.0
CC(OC(=O)c1cc(S(=O)(=O)N(C)c2ccccc2)ccc1Cl)C(=O)Nc1ccc2c(c1)OCCO2 (stereo not given) | 10.0 | 24% | -1 | nt | 6 | nt | -1.2 | 2.3
Cc1nn(CC(=O)N(C)c2c(N)n(Cc3ccccc3)c(=O)[nH]c2=O)c(C)c1[N+](=O)[O-] | nt | nt | nt | -0.7 | nt | -3 | 1.1 | 9.9
Cc1ccc(CNC(=O)/C=C/c2ccc(S(=O)(=O)N3CCOCC3)cc2)cc1 | -2.0 | -11% | -9 | 1.9 | 21 | -3 | 1.1 | -6.5
CC(C)N(C)S(=O)(=O)c1ccc(Cl)c(C(=O)O)c1 | -4.3 | nt | 2 | -0.6 | -10 | 0 | -0.5 | -2.1
O=C(CN(c1cccc([N+](=O)[O-])c1)S(=O)(=O)c1ccccc1)NCc1cccnc1 | 2.2 | nt | 15 | 1.6 | 1 | 2 | 1.2 | 2.3
Cc1cccc(NC(=O)CCCn2c(=S)[nH]c3ccccc3c2=O)c1 | -2.2 | 1% | 1 | -0.6 | 1 | 10 | 0.4 | -3.8
COc1ccc(N2CCN(C(=O)NC3CC(=O)N(c4ccc(OC)cc4)C3)CC2)cc1 (stereo not given) | 4.7 | 0% | -9 | -18 | -1 | -1 | -0.2 | -2.1
COc1ccc(Cl)cc1NC(=O)CCc1nnc2ccc(N3CCN(C)CC3)nn12 | -2.7 | 0% | 8 | -0.5 | 10 | 1 | -0.2 | -0.8
COc1ccc(N(CC(C)C)S(=O)(=O)c2nnc(NC(=O)CC(C)C)s2)cc1 | 1.2 | -8% | 0 | 1.1 | 5 | 7 | 0.3 | 4.0
O=c1[nH]cnc2ccc([N+](=O)[O-])cc12 | -2.5 | 16% | 4 | -20 | 2 | 5 | 0.8 | -2.1
CCOC(=O)c1cnn(-c2ccccc2)c1-c1ccccc1 | 1.2 | -4% | 9 | nt | 4 | nt | 1.1 | 2.3
Cn1cc(CCNC(=O)CC2C(=O)NCCN2CC(c2ccccc2)c2ccccc2)cn1 (stereo not given) | -1.8 | 15% | 1 | 7.0 | -5 | -6 | 0.3 | 1.5
Cc1c(NC(=O)/C(C#N)=C/C2CC=CCC2)c(=O)n(-c2ccccc2)n1C (stereo not given) | -3.1 | 70% | 1 | nt | -2 | -4 | 1.4 | 1.8
CCC(C)(C)n1nnnc1C(c1ccc(F)cc1)N1CCN(C(=O)c2ccco2)CC1 (stereo not given) | -0.3 | 1% | 9 | -1.6 | -4 | 0 | 0.8 | 1.1
O=C(OC(c1ccc(NS(=O)(=O)c2ccccc2)cc1)(C(F)(F)F)C(F)(F)F)c1ccccc1 | 7.5 | nt | 7 | -4.8 | 7 | 7 | 1.4 | -2.5
COc1ccc(-c2n[nH]c3c2C(c2ccc(OC)c(OC)c2)N(c2ccccc2)C3=O)cc1 (stereo not given) | -4.4 | -3% | 15 | nt | 12 | 14 | nt | 4.7
O=C(c1ccccc1)N1CC(COc2ccccc2)OC(c2ccco2)O1 (stereo not given) | 1.5 | -1% | -2 | nt | 6 | -15 | 0.3 | -3.1
NS(=O)(=O)c1ccc(NC(=S)NC2CCCC2)cc1 | 1.8 | -15% | 1 | nt | -2 | nt | 0.0 | -5.1
Cc1cccc(NC(=O)CSc2nsc(SCC(=O)Nc3cccc(C)c3)c2C#N)c1 | 0.6 | nt | 9 | -3.3 | 17 | -9 | -0.2 | -2.0
Cc1ccc(NC(=O)Cc2ccc(-n3cccc3)cc2)c(C)c1 | -2.5 | -1% | 8 | nt | 1 | 1 | 0.4 | 0.7
CCOc1ccccc1C(=O)OCC(=O)Nc1ncc(C(F)(F)F)cc1Cl | 5.4 | -2% | -13 | nt | -6 | 3 | -0.2 | 0.5
COc1ccc(Oc2ccc(/C=C/C(=O)c3ccc(O)cc3)cc2[N+](=O)[O-])cc1 | -5.1 | ? | 4 | 0.0 | -7 | 10 | 0.4 | 0.4
CNc1cc(=O)n(C)c(=O)n1-c1ccccc1 | 0.2 | nt | -7 | -6.1 | -3 | 2 | 0.4 | 1.8
Cc1ccc(/C=C/C(=O)Nc2ccc([N+](=O)[O-])c(NC(=O)/C=C/c3ccc(C)o3)c2)o1 | -0.1 | 1.5µM* | 1 | -6.6 | 2 | 3 | -0.1 | -1.4

Gathered by group, those above with a thiophene ring, fused or not
SMILES | RanGTP-Impb inh | Vif A3G | T cruzi repl | MLL AF4-AF9 inh | Calb FLC | Beta cell apopt | Bfl-1 A1 inh | LANA-H2B inh
O=C(COC(=O)c1cccs1)NC1CCCCC1 | 1.1 | 2% | -1 | nt | -13 | -4 | 0.9 | 3.0
CCc1cc2c(SCC(=O)c3ccc(Cl)s3)ncnc2s1 | 1.2 | -7% | 20 | nt | -3 | 0 | 0.5 | -1.6

Continuation:
SMILES | RanGTP-Impb inh | Vif A3G | T cruzi repl | MLL AF4-AF9 inh | Calb FLC | Beta cell apopt | Bfl-1 A1 inh | LANA-H2B inh
COc1ccc(N(C(=O)CNC(=O)c2ccco2)C(C(=O)NC2CCCC2)c2ccco2)cc1 (stereo not given) | -2.3 | -1% | -8 | -7.3 | 8 | -6 | -0.5 | -0.8
Cc1noc(C)c1COC(=O)c1ccc2c(c1)S(=O)(=O)c1ccccc1C2=O | -2.8 | -4% | -10 | nt | -1 | -3 | 1.4 | -2.9
Cc1ccc(N(C(=O)c2snc(C(N)=O)c2N)C(CC(C)C)C(=O)NC2CCCC2)cc1 (stereo not given) | 3.0 | -2% | 19 | -2.0 | -2 | 9 | 0.3 | -0.4
C=CCn1c(SCC(=O)Nc2nnc(C)s2)nnc1-c1cccnc1 | 5.8 | ? | 8 | -0.7 | -2 | -4 | 0.2 | 1.0
Cc1cccc(C(=O)N[C@H](C(=O)OCC(=O)NC(=O)c2cccn2C)C(C)C)c1 | -2.2 | 4% | -11 | 2.7 | -9 | 1 | -0.2 | -2.5
Cc1ccccc1Cn1c(=O)n(C)c(=O)c2sccc21 | 1.6 | 5% | -14 | 0.0 | 11 | nt | 0.1 | -1.3
COc1ccc(NC(=O)CN2C(=O)C(C)SC(C)C2=O)cc1 (stereo not given) | 1.1 | 18% | -4 | -1.1 | 2 | 0 | 0.2 | 5.3
C/C(CC(=O)Nc1ccc([N+](=O)[O-])cc1)=N/NC(=O)C1CC12CCC2 (stereo not given) | ? | 5% | 9 | -2.0 | -31 | -2 | 0.2 | 2.0
CC(NC(=O)C(Cc1ccccc1)N1C(=O)C2C3CCC(C3)C2C1=O)c1ccccc1 (stereo not given) | 7.8 | -9% | 4 | nt | -9 | 3 | -0.9 | -1.3
Cc1ccc(Cl)cc1OCC(=O)NCCOC(=O)Nc1sc(=S)n(C)c1C | 2.2 | -34% | -2 | nt | -3 | 4 | -0.1 | 3.1
Cc1nn2c(N3CCOCC3)cc(C(C)(C)C)nc2c1-c1ccc(Cl)cc1 | -3.6 | nt | -11 | -1.3 | 2 | nt | nt | nt
CC(C)(C)[C@H]1COC(=O)[C@@H](Cc2ccc(F)cc2)C/C=C\C[C@@H](CC(=O)N[C@@H](CO)Cc2ccccc2)C(=O)N1 | nt | nt | nt | -14 | nt | -5 | -0.4 | -6.7
Cc1ccc(CN2CCNC(=O)C2CC(=O)NCC(F)(F)F)o1 (stereo not given) | -2.5 | -1% | -16 | -0.2 | -9 | -2 | -0.3 | -0.6
O=C1CCCN1CCCNS(=O)(=O)c1ccc(F)c(F)c1 | 1.9 | nt | -12 | -1.4 | 6 | -4 | -0.4 | 0.6

Grouped by structure: those above with a cyano group (2)
SMILES | RanGTP-Impb inh | Vif A3G | T cruzi repl | MLL AF4-AF9 inh | Calb FLC | Beta cell apopt | Bfl-1 A1 inh | LANA-H2B inh
Cc1c(NC(=O)/C(C#N)=C/C2CC=CCC2)c(=O)n(-c2ccccc2)n1C (stereo not given) | -3.1 | 70% | 1 | nt | -2 | -4 | 1.4 | 1.8
Cc1cccc(NC(=O)CSc2nsc(SCC(=O)Nc3cccc(C)c3)c2C#N)c1 | 0.6 | nt | 9 | -3.3 | 17 | -9 | -0.2 | -2.0

Bioassay records as filed in PubChem.
